High-throughput results (PubChem BioAssay)
Sfp PPTase inh: inhibitors of Bacillus subtilis Sfp phosphopantetheinyl transferase | Biochemical Sfp PPTase activity, qHTS | 310,000 tested, 3.5% active | Potency, µM, without a hit: max response, negative = inhibition, usual class: inhibitors; active means well fitted inhibition curve with a large enough effect; inconclusive means small, poorly fitted or top-dose-only effect, or another doubt; inactive means no such curve, though single readings can be large or run the other way;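 further: the enzyme is Sfp with the accession as filed and its product quenches rhodamine fluorescence; potency means the concentration at half of the fitted maximal effect; 0% = enzyme reaction without inhibitor and -100% = no enzyme wells; top concentration of the series not given in the record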
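Step 1, compound plus 15 nM Sfp-PPTase, 15 min, room temperature. Step 2, add rhodamine-CoA (5 uM) and BHQ-2-YbbR (12.5 uM). Step 3, read 525/598 nm fluorescence at 0 and 30 min.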
gsp antag: antagonizes gsp, the McCune-Albright syndrome mutation; gsp-mutant cells, cAMP HTRF, 30 min; control for the full effect not named in the record; 340,000 tested, 0.4% active; Potency, µM (series often up to 76.9 µM), for the others: at the highest dose activity change, negative = inhibition, actives largely listed as inhibitors; active = falling curve of any shape with a large fitted effect; inconclusive = falling curve, mostly with a smaller effect; inactive = flat or rising curve; cell line not stated here;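 further: intracellular cAMP measured with PDE inhibitor Ro 20-1724 present during compound exposure; potency means the concentration at half of the fitted maximal effect; on the % scale 0 is the no-effect control and ±100 the full control effect; nearly all actives have a fitted effect of over 65% in size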
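Measurement of cellular cAMP by homogeneous time-resolved fluorescence following a 30 min compound exposure at 37C. The PDE inhibitor […] was present throughout; the assay buffer was DPBS with 0.05% BSA and 0.005% Tween 20.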
Menin-MLL FL inh: displaces fluorescein MLL peptide from human menin; Fluorescence polarization, fluorescein-MLL peptide displacement from menin; FP activity change, % at 61.4 µM; 290,000 tested, under 10 active; AID 1766; inconclusive = falling polarisation curve, or a change in total fluorescence; inactive = total fluorescence flat and polarisation flat or rising; no compound was filed as active; the % refers to the polarisation; negative = inhibition;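 further: % of control where 0% means no effect; inhibitors lower the polarisation; unlabelled MLL peptide was the positive control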
TRPV1 PAM: human TRPV1 potentiation; Q8NER1; AID 540277; 320,000 tested, 0.02% active; potentiation, % at 8.33 µM; TRPV1-expressing cells, Fluo-8 calcium influx, capsaicin EC20 potentiation; host cell line not named in the record; control for the full effect not named in the record; active means potentiation above 80%; inconclusive means 30% to 80%; inactive means below 30%; further: 0% is about no effect
Target sequence (Q8NER1 whole entry, looked up): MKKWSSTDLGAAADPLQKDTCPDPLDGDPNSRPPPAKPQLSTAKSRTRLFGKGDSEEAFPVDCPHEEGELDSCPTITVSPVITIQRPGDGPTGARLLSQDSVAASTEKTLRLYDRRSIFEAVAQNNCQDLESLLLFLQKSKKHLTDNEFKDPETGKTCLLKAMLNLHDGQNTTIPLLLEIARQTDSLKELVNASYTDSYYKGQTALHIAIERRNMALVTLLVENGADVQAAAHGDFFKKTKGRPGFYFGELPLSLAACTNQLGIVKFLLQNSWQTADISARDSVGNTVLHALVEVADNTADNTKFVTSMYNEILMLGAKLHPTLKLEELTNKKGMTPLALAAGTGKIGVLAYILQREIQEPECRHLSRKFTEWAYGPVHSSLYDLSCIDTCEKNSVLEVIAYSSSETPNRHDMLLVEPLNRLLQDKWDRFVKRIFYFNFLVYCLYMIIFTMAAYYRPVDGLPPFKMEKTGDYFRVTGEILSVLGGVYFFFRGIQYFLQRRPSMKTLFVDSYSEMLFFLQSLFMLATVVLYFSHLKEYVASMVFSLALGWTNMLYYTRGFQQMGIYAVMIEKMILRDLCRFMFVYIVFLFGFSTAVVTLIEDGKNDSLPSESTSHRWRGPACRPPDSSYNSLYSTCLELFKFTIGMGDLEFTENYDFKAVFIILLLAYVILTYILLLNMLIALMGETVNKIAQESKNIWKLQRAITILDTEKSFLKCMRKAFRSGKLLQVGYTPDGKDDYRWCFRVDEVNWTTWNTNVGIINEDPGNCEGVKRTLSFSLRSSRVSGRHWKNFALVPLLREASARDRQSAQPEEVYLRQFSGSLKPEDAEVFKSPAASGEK
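TRPV1-expressing cells were cultured overnight at 35.5C and loaded with Fluo-8 calcium dye for 40 to 90 min at room temperature. After a 10 s baseline, compound was added and calcium influx was read kinetically for 3 min (ex 480/em 520 nm).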
gsp ag: agonists of gsp mutant (McCune-Albright syndrome); gsp mutant cells, cAMP HTRF, 30 min; control for the full effect not named in the record; Potency, µM (top dose mostly 76.9 µM), without a hit: at the top dose activation (cAMP increase), most hits filed as activators; 340,000 tested, 0.13% active; AID 624287; active = well fitted activation curve with a large enough effect; inconclusive = small, poorly fitted or top-dose-only effect, or another doubt; inactive = no such curve, though single readings can be large or run the other way; cell line not stated here;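 further: phosphodiesterase inhibitor Ro 20-1724 added with compounds to block cAMP breakdown; potency means the concentration at half of the fitted maximal effect; nearly all actives have a fitted effect of over 60% in size; about a fifth of the inactives were tested at one dose only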
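Cells in DMEM/10% FBS with G418 were pretreated with compounds in DMSO plus […] (300 uM stock) for 30 min at 37C. cAMP was measured by HTRF (cAMP-d2 plus anti-cAMP antibody-K) after 30 min at room temperature.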
ClpP mod: qHTS Assay for Activators of ClpP; ATP-dependent Clp protease proteolytic subunit (Bacillus subtilis (strain 168)), P80244; purified B. subtilis ClpP, FRET peptide cleavage, 20 min; Potency, µM (highest dose often 57.5 µM), for the others: at the highest dose activity change, negative = active; 340,000 tested, 1.9% active; AID 651965, 2013; active = well fitted falling curve with a large enough effect; inconclusive = small, poorly fitted or top-dose-only effect; inactive = no such curve, though single readings can be large or run the other way; further: potency means the concentration at half of the fitted maximal effect; the source files actives as falling curves though it sought activators and does not explain the sign; nearly all actives have a fitted effect of over 65% in size; many hits overshoot -100%
Target sequence (P80244 whole entry, looked up): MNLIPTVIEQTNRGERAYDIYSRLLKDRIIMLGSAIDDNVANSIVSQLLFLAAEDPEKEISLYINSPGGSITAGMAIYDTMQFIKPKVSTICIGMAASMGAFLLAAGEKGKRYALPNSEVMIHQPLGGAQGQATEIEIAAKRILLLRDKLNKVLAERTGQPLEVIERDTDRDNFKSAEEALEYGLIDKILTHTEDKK
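FRET quenching reversal measured ClpP activation: 10 microg/mL B. subtilis ClpP at pH 8 with the FRET-FV decapeptide, read at 430 nm after 320 nm excitation. The 20-min minus 0-min signal was scaled between DMSO/no-enzyme wells and ADEP (5.8 microM final).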
TRPML1 blocker: inhibitors of human TRPML1 channel. 390,000 tested, 0.02% active. Q9GZU1. AID 624415. activity change, negative = inhibition, % (test concentration not listed). TRPML1-inducible cells, Ca2+ dye fluorescence, FDSS; hits give low values; inhibition of EC80 agonist-evoked calcium signal; in the data active means activity change below about -50%; inconclusive means about -30% to -50%; inactive means above about -30%;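 further: stimulus is agonist 54-4 at its EC80 concentration; on the % scale 0 is the no-effect control and ±100 the full control effect; compound concentration not given in the record; the text of the record puts the active cut at -80%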
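Calcium fluorescence in TRPML1-DL cells induced overnight with Tet: a 110 s read after compound pin addition, then a 110 s antagonist read after challenge with 54-4 at 4 uM final (EC80).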
Starred values were filed as active, the others as inactive; u = inconclusive; x = no result given; [ ] = another dose, or the depositor's remark. Rows are unselected. Share with any hit: about 4.9%.

SMILES	Sfp PPTase inh	gsp antag	Menin-MLL FL inh	TRPV1 PAM	gsp ag	ClpP mod	TRPML1 blocker
CCN(CC)Cc1cc(NC2=NS(=O)(=O)c3ccccc32)ccc1OC(=O)c1ccccc1	7%	10%	-0.3	1	4%	-2.3%	40
Cc1cc2c(cc1C)C(c1ccccc1Br)CC(=O)N2 (configuration not stated)	5%	-21%	3.6	-17	7%	-1.1%	-22
Cc1[nH]c(N)nc(=S)c1CCCNc1ccccc1	x	-4%	x	x	17%	x	26
CCNC(=O)CSc1nnc(-c2ccccc2Br)n1-c1cccc(C(F)(F)F)c1	3%	-3%	-0.7	23	-7%	1.1%	-16
Cn1c(SCC(=O)Nc2ncc(C(F)(F)F)cc2Cl)nnc1-c1ccc(Cl)cc1	2%	-13%	6.2	15	-20%	1.0%	-12
O=C1C(=O)N(c2ccccc2)C(c2ccccc2[N+](=O)[O-])/C1=C(\O)c1ccccc1 (configuration not stated)	13µM*	x	0.9	7	20%[15.4 µM]	x	11
CCCn1c(CCl)nc2cc(S(=O)(=O)N3CCOCC3)ccc21	x	-5%	x	x	u	x	1
C=CCc1cccc(CNc2nc3ccccc3n2C(C)C)c1O	18%	-19%	-0.5	2	3%	-4.4%	-4
COC(=O)C(NC(=O)CN1C(=O)c2ccccc2C1=O)c1ccc(O)c(OC)c1 (configuration not stated)	24%	-4%	-3.1	-3	-7%	-2.2%	4
Cc1ccc(/C=C/c2nnc(-c3ccc(C)cc3)o2)cc1	-2%	3%	3.7	-20	-13%	u	2
CC(C)Cc1nnc(NC(=O)Nc2ccccc2)s1	21%	-7%	1.7	5	-13%[15.4 µM]	x	2
Cc1ccc(C)c(NC(=S)N2C3CCCC2CC(NC(=O)C2CC2)C3)c1 (configuration not stated)	9%	-35%	2.3	26	21%[15.4 µM]	x	-8
COc1ccc(CNc2nc3c(c(=O)[nH]c(=O)n3C)n2CCCc2ccccc2)cc1	26%	17%	0.4	3	23%	0.2%	1
O=C(O)c1ccccc1NS(=O)(=O)c1ccc2ccccc2c1	9%	-11%	0.4	u	4%[15.4 µM]	x	5
CC(CCc1ccccc1)NC(=O)COC(=O)c1ccc([N+](=O)[O-])cc1 (configuration not stated)	7%	10%	-0.2	7	-115%[inhibitor]	x	6
Cc1cc(C)cc(NC(=S)NCC2CCCO2)c1 (configuration not stated)	11%	6%	4.0	6	14%	-5.2%	0
O=C(N/N=C/c1ccc([N+](=O)[O-])o1)c1cc2c(ccc3ccccc32)o1	u	6%	2.2	11	u	-2.3%	21
O=C(CSc1nnc2ccc(-c3ccc(Br)cc3)nn12)NCC1CCCO1 (configuration not stated)	x	18%	x	-3	46%[15.4 µM]	x	-3
CNC(=S)N1N=C(c2ccc(C)cc2)CC1c1ccc(OC)cc1 (configuration not stated)	2%	0%	-6.1	17	-9%	1.2%	20
CC(=O)Nc1ccc(C(=O)CSc2nnc(-c3ccc(O)cc3)n2CC2CCCO2)cc1 (configuration not stated)	u	-9%	1.3	x	0%	-0.4%	-11
CCO[C@@H]1OC(C(N)=O)=C[C@H](c2coc3ccccc3c2=O)[C@H]1CCCO	13%	2%	0.5	-6	x	-0.3%	20
CCc1ccc(C(=O)COc2ccc(NC(C)=O)cc2)cc1	9%	-5%	2.3	10	21%	-0.3%	14
CCOc1ccc(NC(=O)NCc2ccc3c(c2)OCO3)cc1	-1%	7%	-2.8	-3	-15%	1.0%	11
CC(=O)Nc1ccc(NC(=O)CSc2ccc3nnc(CCNS(=O)(=O)c4ccc(C)cc4)n3n2)cc1	13%	8%	-2.5	3	u	-4.8%	10
CS(=O)(=O)N1CCN(c2nc3ccc(Cl)cc3s2)CC1	3%	-1%	-0.8	4	0%[15.4 µM]	x	-7
Additional structures
SMILES	Sfp PPTase inh	gsp antag	Menin-MLL FL inh	TRPV1 PAM	gsp ag	ClpP mod	TRPML1 blocker
Cc1cc(C(=O)N2CCN(c3ccccn3)CC2)c(C)o1	10%	5%	-2.2	-3	16%	u	23
C=C(C)CN(CC)C(=O)Cn1cnc2c(oc3ccccc32)c1=O	11%	-5%	x	6	-8%[15.4 µM]	-1.1%	-6
COCC(=O)Nc1cc(OC)cc(OC)c1	15%	9%	2.5	0	20%	28µM*	-4
COc1ccc(OCC(=O)OCC(=O)NCC2CCCCC2)cc1	x	1%	x	16	18%	-2.7%	5
COc1ccc2nc(N=Nc3c(O)ccc4ccccc34)sc2c1	3%	x	-0.7	11	x	x	x
CC(=O)Nc1cccc(-c2cnc3ccccc3n2)c1	15%	6%	5.1	-4	-3%	2.2%	-14
COc1ccc(C(=O)Nc2ccccc2C(=O)N2CCOCC2)cc1Br	2%	3%	x	4	0%[15.4 µM]	x	10
CCOC(=O)Cn1c(=O)oc2cc(S(=O)(=O)NC3CCCc4ccccc43)ccc21 (configuration not stated)	6%	-1%	-0.8	28	-13%	-1.3%	-7
CCN(C(=O)COc1cccc(-n2cnnn2)c1)C1CCS(=O)(=O)C1 (configuration not stated)	x	7%	x	x	-14%	x	56
COc1ccc(N2CCN(C(=O)C3Cc4ccccc4CN3C(=O)c3ccco3)CC2)cc1 (configuration not stated)	x	-2%	x	-5	-27%	-0.4%	9
Cc1c(NC(=O)C2(c3ccc(Cl)cc3)CCCC2)c(=O)n(-c2ccccc2)n1C	-1%	0%	2.9	1	-42%[inhibitor]	0.5%	-12
Cc1c(C(=O)NCc2c(F)cc(F)cc2F)oc2ccc(S(=O)(=O)N3CCOCC3)cc12	-3%	-12%	-1.8	-30	6%[15.4 µM]	0.2%	2
CCc1ccc2nc(N(CCCN(C)C)C(=O)c3ccc(C(=O)c4ccccc4)cc3)sc2c1	56µM*	9%	x	-16	1%	-1.2%	56
CN(Cc1ccccc1)c1nc2c(c(=O)[nH]c(=O)n2C)n1CCSc1nc2ccccc2[nH]1	-9%	-2%	-1.6	-11	10%	-0.7%	-5
NC(=O)c1cnn(-c2cccc(Cl)c2)c1N	14%	9%	0.8	-6	2%	-0.4%	-17
Cc1cccc2nc(CSc3nc4ccc([N+](=O)[O-])cc4[nH]3)c(Br)n12	-3%	-14%	1.3	7	3%[15.4 µM]	0.9%	-6
Cc1ccc2nsnc2c1S(=O)(=O)N1CCN(C)CC1	7%	3%	-5.8	24	20%	x	-17
O=C(CN(Cc1ccc(F)cc1)C(=O)CCC(=O)Nc1nccs1)NCc1ccc(F)cc1	4%	4%	1.0	1	-10%	x	-24
Cc1ccc(C(=O)CCC(=O)OCC(=O)NNC(=O)c2ccc([N+](=O)[O-])cc2)cc1	x	1%	x	4	1%	-3.3%	-7
O=Cc1ccc(-c2cccc(C(=O)O)c2)o1	u	0%	2.7	5	u	x	-1
Nc1c(C(=O)c2cccs2)sc2nsc(SCCN3CCCCC3)c12	u	-9%	u	16	1%[15.4 µM]	x	-4
CCOC(=O)CSC1=Nc2ccccc2C2=NC(CC(=O)NCc3ccc4c(c3)OCO4)C(=O)N12 (configuration not stated)	7%	2%	1.3	4	-20%	-12%	4
CCOC(=O)C1C2C=CC3(CN(c4ccccc4CC)C(=O)C13)O2 (configuration not stated)	x	8%	x	x	23%	0.7%	-3
Cc1ccc(S(=O)(=O)CCC(=O)NCCN2C(=O)S/C(=C/c3ccc(F)cc3)C2=O)cc1	-1%	-20%	7.7	6	-2%	0.9%	25
O=C1CCCN1CCC12CC3CC(CC(C3)C1)C2	-15%	4%	-0.5	-8	-19%	2.2%	-18

Reformatted comma-delimited: entries from further up.
SMILES,Sfp PPTase inh,gsp antag,Menin-MLL FL inh,TRPV1 PAM,gsp ag,ClpP mod,TRPML1 blocker
Cc1ccc(S(=O)(=O)CCC(=O)NCCN2C(=O)S/C(=C/c3ccc(F)cc3)C2=O)cc1,-1%,-20%,7.7,6,-2%,0.9%,25
CC(=O)Nc1ccc(NC(=O)CSc2ccc3nnc(CCNS(=O)(=O)c4ccc(C)cc4)n3n2)cc1,13%,8%,-2.5,3,u,-4.8%,10

(next part)
SMILES	Sfp PPTase inh	gsp antag	Menin-MLL FL inh	TRPV1 PAM	gsp ag	ClpP mod	TRPML1 blocker
Cc1cc(NC(=O)c2ccccc2F)n(C(C)(C)C)n1	11%	13%	3.4	-2	-13%	1.9%	26
Cc1cccc(S(=O)(=O)c2c(N)n(/N=C/c3ccco3)c3nc4ccccc4nc23)c1	-17%	-9%	u	0	1%	3.5µM*	1
Cc1ncc(CN2CCN(CCc3ccccc3)C(CCO)C2)s1 (configuration not stated)	10%	-7%	0.4	-7	-27%	-1.0%	25
CCOC(=O)C1=C(N)N2C(=O)CSC2=C(C(=O)OC)C1	56µM*	12%	11	-1	-23%	u	7
O=C(NNc1cccc(Cl)n1)C1CC1	12%	12%	-5.1	-7	4%	-0.4%	-1
O=C(CC(Cc1ccccc1)C(=O)O)Nc1ccc(F)cc1 (configuration not stated)	6%	-5%	1.9	5	-1%	-2.7%	-4
CCOC(=O)[C@H]1[C@H]2COc3ccc(Br)cc3[C@@H]2N2C(=O)CN(Cc3ccc(Cl)cc3)C(=O)[C@@]12C	x	-13%	x	x	u	-1.4%	-8
CSc1nc2ccccc2cc1/C=C(\C#N)c1cccc(C)c1	7%	7%	0.7	-2	10%	-25%	20
COc1cccc(CNC(=O)Cn2c(=O)oc3ccccc32)c1OC	-5%	9%	2.9	25	-2%	-1.1%	22
N#Cc1nc(COc2cccc(Cl)c2)oc1N1CCCC1	-15%	-1%	-6.4	-16	22%	-1.1%	-4
O=C(N/N=C/c1ccc2c(c1)OCCO2)c1ccncc1	17%	6%	-6.2	-17	-24%	x	35
O=c1oc2cccnc2n1CCS(=O)(=O)c1ccc(F)cc1	8%	3%	0.2	1	3%[15.4 µM]	x	3
CCOC(=O)/C=C/C(=O)N1CCc2ccccc21	18%	8%	4.1	-5	-18%	-2.0%	26
CC(=O)c1c(-c2ccccc2)c2ccccc2[nH]c1=O	29%	x	0.6	2	-10%[15.4 µM]	x	15
Cc1ccc(S(=O)(=O)N(CC(=O)NCc2cccnc2)C2CCCCC2)cc1	10%	-3%	3.6	-8	-12%[15.4 µM]	x	-6
Cc1cc(NC(=S)N(CCN2CCOCC2)Cc2ccccc2F)ccc1Cl	-1%	-25%	-2.7	-10	-2%[15.4 µM]	x	-5
